Screening results from PubChem BioAssay.
BJeLR viability: MLPCN primary cell-based screen for lethality selective to Ras in HRASV12 cells | BJeLR (HRASV12) viability, CellTiter-Glo ATP luminescence, 48 h; reference of the scale not given here | inhibition, % (no concentration beside the values) | 300,000 tested, 0.17% active | AID 1554, 2009;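 active = replicate mean above 50%; inconclusive = above 50% but judged a plate artefact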;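 note: 50 nL library stock added to about 25 µL; numbers are from one replicate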
RN4220 kill: growth inhibition of S. aureus RN4220, primary screen, OD600; 16 h; 330,000 tested, 0.33% active; inhibition, % (test concentration not listed);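 active = z-score of -3 or lower and OD600 up to 0.18 on both plates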;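 note: plate controls were untreated cells for no effect and reference antibiotic for full effect; stock transfer was 100 nL into about 80 µL; one replicate is shown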
Mtb hypoxia inh: PubChem AID 1159583; M. tuberculosis hypoxia-regulated fluorescent reporter, fluorescence; fluorescence inhibition, % (test concentration not listed); 300,000 tested, 0.1% active;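 active = 35 to 45% if threefold the growth effect, above 45% if 1.5-fold the growth effect; inactive = the rest, general growth blockers included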;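 note: wells of about 50 µL received 100 nL stock; 0% = vehicle wells and 100% = reference inhibitor wells; whole bacteria with a GFP reporter of the hypoxia response; strong numbers were not always called active; many hits fall short of the cut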
Bead autofluor: counter-screen for toxin protease inhibitors: compound fluorescence | 360,000 tested, 3.1% active | fluorescence intensity (test concentration not listed) | compound autofluorescence counterscreen, microsphere flow cytometry; stronger effect = higher value;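 active = at least 3 SD above the mean of all compounds, about 16000 in these data; inconclusive = too few beads counted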;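 note: 100 nL of 1 mM stock went into each well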
ugtP null kill: growth inhibition of ugtP-null S. aureus, primary screen, RN4220 ugtP deletion, OD600. 16 h; some inactives read as strong as hits. growth inhibition, % (concentration not given with the values). 330,000 tested, 0.54% active. AID 1259309, 2017;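 active = z-score under -3 and OD600 up to 0.15 on both plates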;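 note: plate controls were untreated wells for no effect and antibiotic for full effect; wells of about 80 µL received 100 nL stock; the first replicate is given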
PrP 5UTR inh: inhibition of PrP 5' UTR reporter expression; cell-based PrP 5' UTR mRNA reporter, plate reader; inhibition, % (no concentration beside the values); 340,000 tested, 0.35% active;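 active = every replicate at 50% or more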;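 note: 0 = median of the neutral control wells; tested in H4 reporter cells; numbers are from one replicate; inactives centre near -14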
Mtb hypoxia inh growth: second read-out of Mtb hypoxia inh, no call of its own (marks repeat the call); growth inhibition, %; measured here: M. tuberculosis growth (absorbance);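 0% = vehicle and 100% = reference antibiotic; read after six days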
The depositor's hits bear a star; ? = inconclusive; . = no result given.

SMILES	BJeLR viability	RN4220 kill	Mtb hypoxia inh	Mtb hypoxia inh growth	Bead autofluor	ugtP null kill	PrP 5UTR inh
CCOC(=O)CCSc1nc(C)c2cc(C)c(C)cc2n1	-7	9.9	-7	2	3218	9	-28
COC(=O)c1cc2sccc2n1CC(=O)Nc1cc(OC)cc(OC)c1	-14	6.2	1	4	6849	9	-30
CCOC(=O)NCCc1c(C)nc2c(c(C)nn2C(C)(C)C)c1C	-9	3.1	.	.	2423	11	-21
O=C(CCn1c(=S)[nH]c2cc3c(cc2c1=O)OCO3)NCc1ccccc1Cl	6	0.5	-7	4	6329	0	-14
CC(C)c1ccc(N(C(=O)c2csnn2)C(C(=O)NC(C)(C)C)c2cccnc2)cc1 (configuration not stated)	4	2.5	-10	-1	4226	-1	-21
COc1ccc(CC(=O)NC(C)CCc2ccccc2)cc1OC (configuration not stated)	5	-0.9	-2	-9	3697	9	-15
O=C(NCc1ccc(Cl)cc1)C1CCCN(c2ncnc3c2nc2n3CCCCC2)C1 (configuration not stated)	10	-2.9	-2	5	5056	-1	-21
CC(C)(C)NC(=O)CSc1nccn1Cc1ccccc1	-1	4.5	0	4	6065	-2	2
CC(=O)NNC(=O)CC(=O)Nc1nc(C23CC4CC(CC(C4)C2)C3)cs1	-6	-2.8	12	4	2535	4	-16
COc1cccc(N(CC(=O)Nc2cccnc2)S(C)(=O)=O)c1	-7	4.3	3	0	4558	-3	-28
COc1ccc(C/C(C)=N/NC(=S)Nc2ccc(C(C)C)cc2)cc1	5	.	.	.	2074	.	-5
CN(C)S(=O)(=O)c1ccc(NC(=O)c2ccccn2)cc1	10	2.0	.	.	4766	-4	-69
FC(F)(F)c1ccccc1NC(=S)N1CCCCCC1	.	3.9	-2	-3	5227	6	-28
CCN(CC)c1ccc(C(=O)N/N=C(\C)c2ccc(OC)c(OC)c2)cc1	-6	.	.	.	2525	.	-20
CCNC(=O)c1ccc(-n2nc(C(F)(F)F)c3c2CCCC3)cc1	-9	-1.2	0	8	11651	0	-12
CCOCCCNC(=O)C1CCC(=O)N1CCc1ccccc1 (configuration not stated)	14	-16	11	7	3376	-2	-10
O=C1NC(=Cc2cccn2-c2ccccc2)C(=O)N1Cc1ccccc1F	.	7.0	-2	-1	.	57	.
O=C(NCC1CCCO1)C(=O)NCC(c1ccco1)N1CCN(c2ccc(F)cc2)CC1 (configuration not stated)	-8	7.0	4	2	10986	13	-19
O=C(O)c1ccc(Nc2nc(-c3cc4ccccc4oc3=O)cs2)cc1O	0	-0.1	4	21	4555	3	-15
Cc1cccc(NC(=O)Cn2ccn(-c3ccc4c(c3)OCCO4)c(=O)c2=O)c1	-1	2.0	0	8	?	3	-1
Cc1cccc2c1-c1sc(C(=O)Nc3cccc([N+](=O)[O-])c3C)cc1CO2	13	24	3	7	1915	-9	-27
O=C(N/N=C(\c1ccccc1)c1cccnc1)c1ccc(O)cc1	5	.	.	.	4356	.	-13
C/C=C1/CC(C)C(C)(O)C(=O)OCC2CCN3CCC(OC1=O)C23 (configuration not stated)	7	1.8	-3	7	2476	11	-18
COc1ccc(S(=O)(=O)N(C)C[C@H]2Oc3ccc(NS(=O)(=O)c4cn(C)cn4)cc3C(=O)N([C@H](C)CO)C[C@@H]2C)cc1	.	0.8	1	6	3059	1	45
CCOc1ccc(S(=O)(=O)N2CCCCC2)cc1NC(=O)Cc1cccc(C(F)(F)F)c1	.	5.3	10	0	3832	5	-9
Cc1ccc(NC(=O)C(C)OC(=O)c2cc(=O)[nH]c3ccccc23)cc1S(=O)(=O)N1CCOCC1 (configuration not stated)	.	4.6	-8	1	3882	-5	3
CC1(C(=O)CSc2nc3ccccc3[nH]2)CCC(=O)O1 (configuration not stated)	-1	1.9	.	.	2730	4	-12
Cn1cnnc1SCC(=O)c1ccc2c(c1)CCCC2	-10	15	15	8	10654	3	-55
CN(Cc1cccs1)C(=O)COc1ccc(-c2nnco2)cc1	2	2.7	7	12	4221	-1	-5
O=C(CNS(=O)(=O)c1ccc2ccccc2c1)NCCc1ccccn1	0	1.1	8	8	4096	2	-22
c1ccc(CNc2ncnc3nc[nH]c23)cc1	5	6.9	-2	2	5997	-6	-13
O=C(O)CCc1ccc(-c2cccs2)n1NC(=O)c1ccc(O)cc1	8	5.4	4	-5	11936	12	-11
O=S(=O)(Nc1cccc(S(=O)(=O)N2CCCC2)c1)c1ccccc1F	.	12	1	3	8841	2	-8
N#CC(c1cccc(Cl)c1)c1ncc(C(F)(F)F)cc1Cl (configuration not stated)	-5	6.4	10	1	?	-2	-7
CCOc1ccc(N2CC(C(=O)NC3CCSC3=O)CC2=O)cc1 (configuration not stated)	-5	2.7	6	-3	3021	2	-7
CC(C)CNC(=O)C(=O)Nc1ccc(N(C)C)cc1	-3	2.2	7	-2	2085	-1	-44
CCOC(=O)C=CC1Cc2ccccc2CO1 (configuration not stated)	.	5.5	6	9	.	6	.
O=C(O)c1ccc(C(=O)c2ccc3c(c2)C(=O)N(CCO)C3=O)cc1	0	0.1	-1	4	4348	12	-25
Cc1nnc(NC(=O)CSc2nnc(C)n2-c2ccc(F)cc2)s1	-4	0.1	4	6	4182	12	-12
CN(CCCNC(=O)c1cccn2c(=O)c3ccccc3nc12)Cc1ccccc1	3	-2.5	-2	9	11006	-4	-7
Cc1cccc(N2CCN(C(=O)c3cccc(S(=O)(=O)N4CCOCC4)c3)CC2)c1C	.	3.8	2	7	?	-2	-28
CCCn1c(N)c(C(=O)COC(=O)CCS(=O)(=O)c2ccc(C)cc2)c(=O)[nH]c1=O	5	1.6	8	-5	5088	3	-16
COC(=O)Cc1c(C)nc2nc(NCc3ccc(Cl)cc3)[nH]n2c1=O	1	0.5	11	5	9208	2	-23
CN1CCN(CC(=O)Nc2ccc(Oc3ccccc3)cc2)CC1	-3	2.4	3	-4	?	10	-5
CC(=O)OCC1=C(C(=O)O)N2C(=O)C(NC(=O)c3ccc(F)cc3)C2SC1 (configuration not stated)	-4	100*	-5	15	3440	100*	-3
COc1ccc(S(=O)(=O)NN(C)c2nc(C(F)(F)F)nc3ccccc23)cc1	4	4.3	9	11	2461	-1	3
O=C(NN=Cc1ccc([N+](=O)[O-])o1)c1ccc2c(c1)OCO2	.	88*	3	17	.	98*	.
CCc1ccccc1NC(=O)CN1C(=O)c2ccccc2S1(=O)=O	-3	0.1	-9	2	3761	1	0
O=C(CN1CCN(Cc2ccccc2Cl)C1=O)NCCCN1CCOCC1	-3	2.5	5	-2	4610	-5	-4
O=C(COC(=O)c1ccccc1)Nc1ncc([N+](=O)[O-])s1	.	10	11	9	2854	7	-27
O=C(NCc1ccco1)c1ccc2c(=O)n(-c3ccccc3)c(=O)n(Cc3cccc(F)c3)c2c1	-11	1.8	.	.	4295	7	-3
Cc1nnc(SCc2nc3sc(C(=O)O)c(C)c3c(=O)[nH]2)s1	2	2.5	8	-12	3484	9	-5
COc1ccccc1CNC(=O)c1ccc(-c2ccccc2)cc1	-2	-1.6	-1	5	2499	19	-35
O=C(NCc1ccccc1)c1ccccc1C(=O)c1ncc[nH]1	10	4.7	8	3	2017	3	-16
O=C(O)c1ccccc1Nc1ccc([N+](=O)[O-])c2nonc12	12	8.4	19	-3	3174	17	9
COc1ccc(CCn2nnnc2C(CC(C)C)N2CCC(C(N)=O)CC2)cc1OC (configuration not stated)	9	3.2	8	7	4308	5	-18
COc1ccc(CNc2nc(=S)[nH]c3cc(OC)c(OC)cc23)cc1	-2	6.9	-16	-8	4193	-7	-24
COc1ccccc1N1CCN(C(=O)Cn2nc3n(C)c4ccccc4n3c(=O)c2=O)CC1	-8	-1.7	-16	-7	.	-2	.
CNCC(=O)Nc1c(C)n[nH]c1C	-9	1.0	5	7	2271	10	1
CCOc1ccc(-c2nnc3ccc(SC(C)C)nn23)cc1	5	.	.	.	5933	.	2

Compound profiles, from the list above. Screens in order: BJeLR viability	RN4220 kill	Mtb hypoxia inh	Mtb hypoxia inh growth	Bead autofluor	ugtP null kill	PrP 5UTR inh
CC(C)CNC(=O)C(=O)Nc1ccc(N(C)C)cc1 is listed with -3	2.2	7	-2	2085	-1	-44
N#CC(c1cccc(Cl)c1)c1ncc(C(F)(F)F)cc1Cl (configuration not stated) is listed with -5	6.4	10	1	?	-2	-7

Later entries
SMILES	BJeLR viability	RN4220 kill	Mtb hypoxia inh	Mtb hypoxia inh growth	Bead autofluor	ugtP null kill	PrP 5UTR inh
CCCN1C(=O)CC(Sc2ncccc2C(=O)O)C1=O (configuration not stated)	3	3.5	2	4	4775	8	-22
CC1=C(C(=O)OCCOC(C)C)C(c2cc3c(cc2Br)OCO3)CC(=O)N1 (configuration not stated)	-6	7.4	13	11	4373	-1	-5
COC(=O)c1[nH]c2ccc(Cl)cc2c1NC(=O)C1CC1	2	-5.8	.	.	3504	0	-19
O=C(Nc1ccc(S(=O)(=O)Nc2nccs2)cc1)c1ccc(S(=O)(=O)N2CCOCC2)cc1	-12	2.8	22	28	2606	2	-21
CSc1nncc(/C(C)=N/O)n1	-18	.	.	.	7233	.	-34
COC(=O)c1ccc(NC(=O)Cn2nc(C)c3ccccc3c2=O)cc1	-4	-0.3	13	15	3503	6	-16
N=c1ccn(CC(=O)NC(N)=O)c2ccccc12	-1	-4.8	-3	-3	9431	-7	-12
C=C(C)C(=O)Nc1cccc(C2=NOC3(C2)C[C@@H](C(N)=O)N(C(=O)c2cc([N+](=O)[O-])cc([N+](=O)[O-])c2)C3)c1 (some centres not stated)	7	.	.	.	3532	.	-9
Cc1cccc(Cn2cccc2/C=C2/C(=N)N3C=CSC3=NC2=O)c1	3	0.0	10	-3	2236	-9	-5
Cc1cccc(NC(=O)COC(=O)COc2ccc3c(c2)CCC3)c1	.	0.6	12	6	3867	1	-53
CCOC(=O)N1CCN(C(=O)CS(=O)(=O)c2cn(Cc3ccc(F)cc3)c3ccccc23)CC1	-2	-5.9	2	10	5604	-6	-48
COc1cccc(N2CC(O)=C(c3ccccc3)C2=N)c1	5	.	.	.	2727	.	-2
O=C1Cc2cc(NS(=O)(=O)c3cc(F)ccc3F)cc3c2N1CCC3	8	3.2	2	11	.	0	-4
Cc1cccc(CCNC(=O)CCNC(=O)Cn2ccc3ccccc3c2=O)c1	-5	0.5	-2	-4	9696	6	-30
CCNC(=S)N1CCC(NC(=O)c2ccco2)CC1	-14	3.8	0	3	3775	6	-55

Entries listed so far containing a furan ring, fused or not (4):
SMILES	BJeLR viability	RN4220 kill	Mtb hypoxia inh	Mtb hypoxia inh growth	Bead autofluor	ugtP null kill	PrP 5UTR inh
O=C(NCC1CCCO1)C(=O)NCC(c1ccco1)N1CCN(c2ccc(F)cc2)CC1 (configuration not stated)	-8	7.0	4	2	10986	13	-19
O=C(NN=Cc1ccc([N+](=O)[O-])o1)c1ccc2c(c1)OCO2	.	88*	3	17	.	98*	.
O=C(NCc1ccco1)c1ccc2c(=O)n(-c3ccccc3)c(=O)n(Cc3cccc(F)c3)c2c1	-11	1.8	.	.	4295	7	-3
CCNC(=S)N1CCC(NC(=O)c2ccco2)CC1	-14	3.8	0	3	3775	6	-55

The results go on:
SMILES	BJeLR viability	RN4220 kill	Mtb hypoxia inh	Mtb hypoxia inh growth	Bead autofluor	ugtP null kill	PrP 5UTR inh
Cn1c(-c2ccc(F)cc2)cc2onc(-c3ccccc3Cl)c2c1=O	.	-1.0	0	-6	3883	-4	-84
COc1cc(/C=N/NC(=O)CN2CC(c3ccccc3)CC2=O)ccc1OC(=O)N(C)C (configuration not stated)	0	.	.	.	7290	.	-1
Nc1c(C(=O)NCc2ccc3c(c2)OCO3)nnn1CC(=O)Nc1ccc(Br)cc1	8	1.1	-16	-6	5742	-3	-18
CCC(=O)c1ccc(OCC(=O)OCC(=O)NCC2CCCCC2)cc1	-5	4.2	7	1	5366	-6	-30
Cc1ccc2c(CN3CCCCC3CCO)cc(=O)oc2c1 (configuration not stated)	0	3.6	1	2	3991	2	-25
COc1ccc(CC(=O)NCC(=O)N=Nc2c(O)[nH]c3ccccc23)cc1	3	3.8	7	1	5294	6	-21
COCCNC(=O)C(c1ccc(F)cc1)N(C(=O)CCC(=O)Nc1ccccn1)C1CCCCC1 (configuration not stated)	-3	-2.3	8	14	3586	6	-23
Cc1ccc(NC(=O)Cn2cnc3sc(C(=O)NCc4ccco4)c(C)c3c2=O)cc1Cl	-5	-13	-15	1	21778*	-11	-6
O=C(CC1C(=O)OCN1C(=O)OCc1ccccc1)OCC(=O)c1ccccc1 (configuration not stated)	-1	0.5	.	.	4636	3	-14
